Screening results (PubChem)
Env fusion inh: inhibitors of HIV-1 Env-driven cell-cell fusion, primary screen, HeLa-JRFL effector, CEM21 target cells, luciferase; inhibition, % at 12.3 µM; actives 1.1% (n = 360,000); AID 651610, 2012;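 active = mean replicate inhibition score of at least 50 and every replicate individually at or above 50; inconclusive = only one of the two criteria met; inactive = mean below 50 and not all replicates reaching 50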;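 also: 0% = plate neutral controls and 100% = maraviroc near 300 nM; one replicate is shown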
Yeast UUG start: modulators of yeast start codon fidelity, primary screen, whole organism, S. cerevisiae, single point, plate reader. S. cerevisiae UUG-firefly luciferase reporter, luminescence/redox ratio. activity score, % at 18.7 µM. actives 0.13% (n = 350,000). AID 602363, 2012;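 active = replicate mean at a twofold rise or more, about +100% in these data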;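 also: firefly luciferase made from a UUG start codon reports start codon fidelity; reporter light over untreated wells divided by growth signal over untreated wells; some hits fall short of that in this replicate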
eIF4H inh: human eIF4H binding inhibitors, primary screen, translation initiation inhibitor project, biochemical, uHTS, fluorescence polarization. eIF4H fluorescence polarization binding assay. AID 2012, 2009. inhibition, % at 35 µM. actives 0.94% (n = 290,000). Eukaryotic translation initiation factor 4H (Homo sapiens), Q15056;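 active = 50% or more with normal probe brightness, or confirmed in later tests; inconclusive = above 50% with abnormal brightness, or retests that disagree; inactive = below 50% or failed in later tests; about a fifth of its hits are not listed in these tables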;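 also: calls also rest on retests at 20 µM and on dose response follow-up; 0% = protein and probe with vehicle and 100% = probe without protein; strong numbers were not always called active; many hits fall short of the cut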
MT1-MMP act inh: blockers of MT1-MMP proenzyme processing, primary screen, HT1080 RFP-PRO-GFP cells, GFP/RFP fluorescence. Matrix metalloproteinase-14 (Homo sapiens), P50281. GFP/RFP ratio fluorescence, overnight; percent of plate control window, DMSO zero. GFP/RFP ratio change, % at 20 µM. actives 0.061% (n = 360,000);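 active = GFP/RFP ratio change of at least 30% with cell ATP level not reduced by more than half and red fluorescence within 50% of control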; also: strong numbers were not always called active
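Material: RFP-PRO-GFP reporter HT1080 cells. Dosing: single-point 20 µM compound, 1% DMSO. Controls: DMSO and RFP-L50D-GFP cell wells. Timing: cells overnight before dosing, compound overnight, 37 °C, 5% CO2. Measure: GFP/RFP fluorescence ratio.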
CSC inhib: cancer stem cell viability inhibitors, primary screen, luminescence. AID 2717, 2010. actives 1.1% (n = 300,000). cancer stem cell-like cells viability. inhibition, % at 7.5 µM;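 active = mean at 75% or more and at least half the replicates too; inconclusive = mean and replicates disagree; tested in HMLE shEcad cells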;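 also: 0% = median of negative and 100% = median of positive control wells; the first replicate is given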
PABP FP inh: PABP poly(A) RNA binding inhibitors, primary screen, biochemical, fluorescence polarization, uHTS; inhibition, % at 35 µM; actives 1% (n = 290,000);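 active = 50% or more with normal probe brightness, or confirmed in later tests; inconclusive = above 50% with abnormal brightness, or retests that disagree; inactive = below 50% or failed in later tests; about a fifth of its hits are not listed in these tables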;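 also: calls also rest on retests at 20 µM and on dose response follow-up; controls were probe without protein and protein plus probe with vehicle; some compounds called inactive have numbers as strong as hits; many hits fall short of the cut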
Target sequence (P11940 whole entry, looked up): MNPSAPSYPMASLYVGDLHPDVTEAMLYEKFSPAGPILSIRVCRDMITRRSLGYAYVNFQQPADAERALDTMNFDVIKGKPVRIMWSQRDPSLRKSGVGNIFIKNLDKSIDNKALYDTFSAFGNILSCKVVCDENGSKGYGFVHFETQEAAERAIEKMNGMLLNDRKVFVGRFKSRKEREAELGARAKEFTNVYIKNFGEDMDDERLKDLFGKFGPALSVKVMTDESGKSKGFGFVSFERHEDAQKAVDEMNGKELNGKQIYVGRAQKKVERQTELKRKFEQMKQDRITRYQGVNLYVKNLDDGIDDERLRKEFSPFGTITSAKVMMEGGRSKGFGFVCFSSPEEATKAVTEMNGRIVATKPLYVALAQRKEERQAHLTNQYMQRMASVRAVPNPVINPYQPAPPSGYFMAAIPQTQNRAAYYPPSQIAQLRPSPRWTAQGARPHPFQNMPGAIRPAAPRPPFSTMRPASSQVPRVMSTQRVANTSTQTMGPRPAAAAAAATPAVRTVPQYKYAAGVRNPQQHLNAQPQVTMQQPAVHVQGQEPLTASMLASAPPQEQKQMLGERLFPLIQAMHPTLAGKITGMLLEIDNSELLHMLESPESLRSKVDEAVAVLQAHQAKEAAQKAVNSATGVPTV
Rce1 inh: yeast Rce1p protease inhibitors, primary screen, biochemical, fluorescence, cell-free homogeneous. yeast membranes, quenched prenylated peptide cleavage fluorescence. calls only. actives 0.27% (n = 290,000). AID 2563, 2010;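 active = fall in fluorescence gain of 50% or more versus controls, with final raw signal at or below 3038400; inconclusive = same 50% fall but final raw signal above 3038400; inactive = fall in fluorescence gain under 50%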;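 also: plate controls were neutral control wells for no effect and wells lacking membranes for full effect; tested at 10 µM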
MT1-MMP act inh RFP: second read-out of MT1-MMP act inh, no call of its own (marks repeat the call); RFP signal change, %; measured here: RFP expression control read;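 0 = vehicle wells; hits needed this value within 50% of zero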
* hit, by the source's call; & = joins results of further samples. Some of the compounds tested; count on the stated rates, not on these rows.

Screening NS(=O)(=O)c1cc2c(cc1C(F)(F)F)NC(Cc1ccccc1)NS2(=O)=O (centres undefined) returned Env fusion inh -7.3, Yeast UUG start -10.2, eIF4H inh -0.4, MT1-MMP act inh 1.6, CSC inhib -13.2, PABP FP inh -4.0, Rce1 inh inactive and MT1-MMP act inh RFP 2.6.
CC(C)=CC(=O)O[C@@H]1Cc2cc3ccc(=O)oc3cc2OC1(C)C was read as Env fusion inh 12.4, Yeast UUG start -20.5, MT1-MMP act inh -1.0, CSC inhib -11.7 and MT1-MMP act inh RFP 0.1.
COc1nc(C)nc(Cl)c1NC1=NCCN1 was read as Env fusion inh -2.6&24.4, Yeast UUG start -13.6&-0.9, MT1-MMP act inh -1.1&10.6, CSC inhib -3.7, Rce1 inh inactive and MT1-MMP act inh RFP -0.6&2.9.
`COc1cc2nc(N3CCN(C(=O)C4COc5ccccc5O4)CC3)nc(N)c2cc1OC` (centres undefined) gave Env fusion inh -4.5, Yeast UUG start 4.6, eIF4H inh -5.0, MT1-MMP act inh 7.6, CSC inhib -13.1, PABP FP inh 12.4, Rce1 inh inconclusive and MT1-MMP act inh RFP 4.9.
CCOC(=O)C1(CCOc2ccccc2)CCN(Cc2ccc(O)c(Cl)c2)CC1 was read as Env fusion inh 5.0, Yeast UUG start -13.3, eIF4H inh 1.2, MT1-MMP act inh 0.2, CSC inhib -1.1, PABP FP inh 1.2, Rce1 inh inactive and MT1-MMP act inh RFP -4.8.
CC1(C)O[C@H]2CC(=O)OCC23[C@H]2CC[C@@]4(C)[C@H](c5ccoc5)OC(=O)[C@H]5O[C@]54[C@]2(C)C(=O)C[C@@H]13 (some centres undefined) was read as Yeast UUG start 19.7, MT1-MMP act inh 0.9, CSC inhib -6.3, Rce1 inh inactive and MT1-MMP act inh RFP 6.1.
Screening Cc1nnc(NS(=O)(=O)c2ccc(N)cc2)s1 returned Yeast UUG start -8.9, eIF4H inh -0.4, MT1-MMP act inh 0.8, CSC inhib -9.4, PABP FP inh -2.0, Rce1 inh inactive and MT1-MMP act inh RFP 0.5.
Screening CCC[C@H](N[C@@H](C)C(=O)N1[C@H](C(=O)O)C[C@@H]2CCCC[C@@H]21)C(=O)OCC returned Env fusion inh 8.0, Yeast UUG start 1.3, MT1-MMP act inh -1.9, CSC inhib -7.9 and MT1-MMP act inh RFP 0.7.
Cc1nc2c3ccccc3nc(NNC(=O)CCC(=O)N3CCN(c4ccccc4)CC3)n2n1 was read as Env fusion inh -1.9, Yeast UUG start -22.3, eIF4H inh 2.8, MT1-MMP act inh 5.1, CSC inhib -10.2, PABP FP inh 2.7, Rce1 inh inactive and MT1-MMP act inh RFP 5.1.
O=C(O)COC(=O)Cc1ccccc1Nc1c(Cl)cccc1Cl was read as Env fusion inh -6.8, Yeast UUG start -1.9, eIF4H inh -1.5, MT1-MMP act inh 3.0, CSC inhib -9.8, PABP FP inh 4.6, Rce1 inh inactive and MT1-MMP act inh RFP 4.2.
Screening CC(=O)[C@H]1CC[C@H]2[C@@H]3C[C@H](C)C4=CC(=O)CC[C@]4(C)[C@H]3[C@@H](O)C[C@]12C returned Env fusion inh -2.8, Yeast UUG start -35.4, eIF4H inh -5.9, MT1-MMP act inh 0.6, CSC inhib -9.1, PABP FP inh 5.9, Rce1 inh inactive and MT1-MMP act inh RFP -1.6.
C=C1c2cccc(O)c2C(=O)C2C(=O)[C@]3(O)C(=O)C(C(N)=O)C(=O)[C@@H](N(C)C)[C@@H]3[C@@H](O)[C@H]12 (some centres undefined) was read as Env fusion inh 59.8*, Yeast UUG start -7.0, MT1-MMP act inh 0.8 and MT1-MMP act inh RFP -8.2.

Some of these compounds in order of number of heavy atoms, smallest number first.
COc1nc(C)nc(Cl)c1NC1=NCCN1 was read as Env fusion inh -2.6&24.4, Yeast UUG start -13.6&-0.9, MT1-MMP act inh -1.1&10.6, CSC inhib -3.7, Rce1 inh inactive and MT1-MMP act inh RFP -0.6&2.9.
Screening Cc1nnc(NS(=O)(=O)c2ccc(N)cc2)s1 returned Yeast UUG start -8.9, eIF4H inh -0.4, MT1-MMP act inh 0.8, CSC inhib -9.4, PABP FP inh -2.0, Rce1 inh inactive and MT1-MMP act inh RFP 0.5.
CC(C)=CC(=O)O[C@@H]1Cc2cc3ccc(=O)oc3cc2OC1(C)C was read as Env fusion inh 12.4, Yeast UUG start -20.5, MT1-MMP act inh -1.0, CSC inhib -11.7 and MT1-MMP act inh RFP 0.1.
Screening CCC[C@H](N[C@@H](C)C(=O)N1[C@H](C(=O)O)C[C@@H]2CCCC[C@@H]21)C(=O)OCC returned Env fusion inh 8.0, Yeast UUG start 1.3, MT1-MMP act inh -1.9, CSC inhib -7.9 and MT1-MMP act inh RFP 0.7.
C=C1c2cccc(O)c2C(=O)C2C(=O)[C@]3(O)C(=O)C(C(N)=O)C(=O)[C@@H](N(C)C)[C@@H]3[C@@H](O)[C@H]12 (some centres undefined) was read as Env fusion inh 59.8*, Yeast UUG start -7.0, MT1-MMP act inh 0.8 and MT1-MMP act inh RFP -8.2.
`COc1cc2nc(N3CCN(C(=O)C4COc5ccccc5O4)CC3)nc(N)c2cc1OC` (centres undefined) gave Env fusion inh -4.5, Yeast UUG start 4.6, eIF4H inh -5.0, MT1-MMP act inh 7.6, CSC inhib -13.1, PABP FP inh 12.4, Rce1 inh inconclusive and MT1-MMP act inh RFP 4.9.

The list goes on:
`O=c1cc[nH]c(=O)[nH]1` gave Env fusion inh -9.9, Yeast UUG start -29.0, MT1-MMP act inh 0.2, CSC inhib 4.6, Rce1 inh inactive and MT1-MMP act inh RFP 0.2.
For C/C=C/C=N\NC(=O)c1ccncc1 the results were Env fusion inh 9.4, Yeast UUG start 4.6, eIF4H inh -0.5, MT1-MMP act inh -1.4, CSC inhib -3.1, PABP FP inh 2.0, Rce1 inh inactive and MT1-MMP act inh RFP 3.6.
For Nc1ccc(C(=O)Nc2ccccc2N)cc1 the results were Env fusion inh 21.7, Yeast UUG start -11.7, eIF4H inh -0.5, MT1-MMP act inh 14.7, CSC inhib 17.0, PABP FP inh 8.4, Rce1 inh inactive and MT1-MMP act inh RFP 12.9.
Cc1onc(-c2ccccc2Cl)c1C(=O)N[C@@H]1C(=O)N2[C@@H]1SC(C)(C)[C@@H]2C(=O)O was read as Env fusion inh -32.7&24.7, Yeast UUG start -11.7&-32.0, MT1-MMP act inh -1.6&-0.4, CSC inhib 0.9&-4.2 and MT1-MMP act inh RFP 1.9&3.0.
For O=C(O)[C@@H]1[C@H]2C[C@H]3c4[nH]c5ccccc5c4CCN3C[C@@H]2CC[C@@H]1O the results were Yeast UUG start 11.5, MT1-MMP act inh -23.2, CSC inhib -1.5 and MT1-MMP act inh RFP 18.1.
`C[C@]12CC[C@H]3[C@@H](CCC4=CC(=O)CC[C@@]43C)[C@@H]1CC[C@@H]2C(=O)CO` gave Env fusion inh -135.6, Yeast UUG start -2.7, eIF4H inh 10.7, MT1-MMP act inh -0.5, CSC inhib -2.7, PABP FP inh 4.4, Rce1 inh inactive and MT1-MMP act inh RFP -2.5.
Screening Nc1cc(-c2ccncc2)c[nH]c1=O returned Yeast UUG start -4.8, eIF4H inh inconclusive, MT1-MMP act inh -22.2, CSC inhib -5.4, PABP FP inh 5.9, Rce1 inh inactive and MT1-MMP act inh RFP -0.9.
Screening CC1(C)OC2CC3C4CC(F)C5=CC(=O)C=CC5(C)C4(F)C(O)CC3(C)C2(C(=O)CO)O1 (centres undefined) returned Env fusion inh -178.6, Yeast UUG start -2.0, eIF4H inh -8.2, MT1-MMP act inh -9.9, CSC inhib -10.3, PABP FP inh 8.2, Rce1 inh inactive and MT1-MMP act inh RFP -6.2.
`CN(C)C/C=C(/c1ccc(Br)cc1)c1cccnc1` gave Env fusion inh -10.3, Yeast UUG start 12.8, MT1-MMP act inh -3.4, CSC inhib -9.2, Rce1 inh inactive and MT1-MMP act inh RFP 1.4.
CC(=O)NCCCCCC(=O)O was read as Env fusion inh -22.3, Yeast UUG start -17.1, MT1-MMP act inh 4.7 and MT1-MMP act inh RFP 5.6.
`CC(=O)N1C[C@H](O)C[C@H]1C(=O)O` gave Env fusion inh -7.6, Yeast UUG start -3.9, MT1-MMP act inh 1.2, CSC inhib -10.0 and MT1-MMP act inh RFP 5.1.
COc1c(O)cc2c(c1O)C1OC(CO)C(O)C(O)C1OC2=O (centres undefined) was read as Env fusion inh 12.5, Yeast UUG start -19.4, MT1-MMP act inh -1.4, CSC inhib -13.1 and MT1-MMP act inh RFP -1.9.
O=C(Cn1ccnc1[N+](=O)[O-])NCCO was read as Env fusion inh 15.7, Yeast UUG start -13.0, MT1-MMP act inh 4.6 and MT1-MMP act inh RFP 5.0.
For CC(C)Cn1cnc2c1c(=O)n(C)c(=O)n2C the results were Yeast UUG start -19.5, eIF4H inh -9.4, MT1-MMP act inh 0.9, CSC inhib -13.5, PABP FP inh -4.2, Rce1 inh inactive and MT1-MMP act inh RFP 1.8.
CCOc1ccc(S(=O)(=O)N2CCCCCC2)c2ccccc12 was read as Env fusion inh 31.0, Yeast UUG start -5.9, eIF4H inh -2.1, MT1-MMP act inh -11.9, CSC inhib 12.2, PABP FP inh 0.0, Rce1 inh inactive and MT1-MMP act inh RFP -1.4.
For CCCn1ncc(CN2CCCC(C(=O)c3cccc(OC(C)C)c3)C2)c1C (centres undefined) the results were Env fusion inh 6.7, eIF4H inh 2.2, MT1-MMP act inh 3.4, CSC inhib 37.4, PABP FP inh 0.8, Rce1 inh inactive and MT1-MMP act inh RFP 1.3.
Screening CCCCCCCCO returned Yeast UUG start -8.5, MT1-MMP act inh -0.8, CSC inhib -1.9 and MT1-MMP act inh RFP 4.4.
O=C1N(c2ccccc2)c2ccccc2C1(Cc1ccncc1)Cc1ccncc1 was read as Env fusion inh -13.9, Yeast UUG start 10.1, eIF4H inh 13.0, MT1-MMP act inh -4.0, CSC inhib 1.3, PABP FP inh 33.7, Rce1 inh inactive and MT1-MMP act inh RFP -1.6.
`Cc1coc2c1C(=O)C(=O)c1c-2ccc2c1CCCC2(C)C` gave Yeast UUG start -20.4, eIF4H inh 64.1*, MT1-MMP act inh 9.0, CSC inhib -2.4, PABP FP inh 51.2*, Rce1 inh inactive and MT1-MMP act inh RFP -4.3.
CN(C)CCCN1c2ccccc2Sc2ccccc21 was read as Env fusion inh 20.7, Yeast UUG start -4.4, eIF4H inh -1.8, MT1-MMP act inh -7.1, CSC inhib -0.4, PABP FP inh -2.0, Rce1 inh inactive and MT1-MMP act inh RFP -0.9.
For CC(=O)O[C@]1(C(C)=O)CC[C@H]2[C@@H]3C=C(Cl)C4=CC(=O)[C@@H]5C[C@@H]5[C@]4(C)[C@H]3CC[C@@]21C the results were Env fusion inh -18.4, Yeast UUG start 18.6&0.1, MT1-MMP act inh 22.9&-3.7, CSC inhib -1.2&5.2, Rce1 inh inactive and MT1-MMP act inh RFP -7.2&0.4.
